# Screens (PubChem BioAssay)
# RecA intein inh: Mtb RecA intein splicing inhibition | P9WHJ3 | cell-free RecA intein splicing, fluorescence | inhibition, %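 (about 9 µM by stock and volumes)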 | 290,000 tested, 0.75% active; in the data active = inhibition above about 30%; inconclusive = no clear call, values can overlap the other calls;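 note: 0% = vehicle wells and 100% = reference inhibitor control wells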
# Target sequence (P9WHJ3 whole entry, looked up): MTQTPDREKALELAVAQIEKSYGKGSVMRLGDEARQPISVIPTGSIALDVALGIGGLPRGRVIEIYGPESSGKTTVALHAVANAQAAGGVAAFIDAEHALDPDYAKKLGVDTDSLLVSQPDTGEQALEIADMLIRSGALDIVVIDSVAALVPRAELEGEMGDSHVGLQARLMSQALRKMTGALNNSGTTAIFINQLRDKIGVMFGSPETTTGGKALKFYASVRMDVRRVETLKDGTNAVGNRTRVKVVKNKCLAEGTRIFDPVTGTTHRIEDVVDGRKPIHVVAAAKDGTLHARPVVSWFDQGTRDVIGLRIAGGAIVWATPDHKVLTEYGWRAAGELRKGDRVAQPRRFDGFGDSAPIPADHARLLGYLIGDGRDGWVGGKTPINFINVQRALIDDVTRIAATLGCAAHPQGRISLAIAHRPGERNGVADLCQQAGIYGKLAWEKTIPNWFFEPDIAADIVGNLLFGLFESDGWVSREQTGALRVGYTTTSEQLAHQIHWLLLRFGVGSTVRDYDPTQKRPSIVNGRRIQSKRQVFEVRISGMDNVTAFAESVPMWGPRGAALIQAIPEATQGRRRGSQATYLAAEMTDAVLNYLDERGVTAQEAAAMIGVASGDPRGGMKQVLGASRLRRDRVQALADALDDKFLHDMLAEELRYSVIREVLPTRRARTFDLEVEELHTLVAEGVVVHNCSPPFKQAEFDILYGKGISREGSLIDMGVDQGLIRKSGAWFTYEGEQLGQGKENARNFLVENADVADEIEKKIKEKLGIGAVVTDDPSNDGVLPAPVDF
# YopH PTP inh: YopH (Yersinia) phosphatase inhibition; fluorescence Ex485/Em525; inhibition, %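 (about 10 µM by stock and volumes)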; 140,000 tested, 0.16% active;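 active = inhibition of 50% or more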;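 note: controls were vehicle for no effect and minimum signal wells for full effect; inactives centre near -20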
# Mtb H37Rv: M. tuberculosis H37Rv growth inhibitors, H37Rv strain (AID 1626); M. tuberculosis H37Rv growth inhibition; higher % means a stronger effect; inhibition, % at 10 µM, or IC50 in µM where a hit was titrated; 220,000 tested, 0.95% active;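 active = confirmed in a dose series; inconclusive = inhibition above 80% but not taken into the dose series; inactive = below 80% or under 30% at every dose of the series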;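 note: bacteria incubated seven days before Alamar blue readout; 0% = bacteria only wells and 100% = bacteria with antibiotic wells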
# Mtb bLac sens: beta-lactam sensitization of Mtb H37Rv; M. tuberculosis H37Rv growth with meropenem, percent inhibition; hits of this screen are not shown here; inhibition, % at 25 µM; 330,000 tested, 0.27% active; AID 434955;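 active = about 74% or more and at least 40 points above the plate without the antibiotic, then above 30% in a dose series; inconclusive = first-round hits that could not be retested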;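 note: growth measured after seven days incubation then overnight dye step; 0% = bacteria only wells and 100% = bacteria with antibiotic; twin plates without the antibiotic show which effects depend on it; some results filed as inactive read as strong as hits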
# Arbovirus inh: arbovirus infection inhibition | arbovirus infection cell-based antiviral screen | inhibition, % at 10 µM | 200,000 tested, 0.37% active;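 active = inhibition from about 30%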;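 note: bluetongue infection of BSR cells; cell survival read as ATP light after 72 h; 0% = infected wells without compound and 100% = uninfected wells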
# Arbovirus inh repeat: second read-out of Arbovirus inh, no call of its own (marks repeat the call); inhibition, %; measured here: 10K subset replicate screen; many hits read low in the repeat;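 first of two repeat runs on a subset; 0% = infected and 100% = uninfected wells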
# Active calls of the source: *; ? = inconclusive; . = no result given.
SMILES,RecA intein inh,YopH PTP inh,Mtb H37Rv,Mtb bLac sens,Arbovirus inh,others
CC(C)Cc1nnc(NC(=O)c2ccc3c(=O)n4c(nc3c2)CCC4)s1,-1.9,.,.,-23,.,
O=c1[nH]c(=O)n(Cc2ccccc2)c2c1CCC2,1.0,9,1%,-7,0,
CC1CCCN(C(=O)c2ccc(NS(=O)(=O)c3ccc4[nH]c(=O)[nH]c4c3)cc2)C1 (stereo not given),-0.6,.,.,-5,.,
COc1ccc(-c2cc(C(=O)Nc3cc(C)on3)no2)cc1,8.0,.,14%,-1,0,
CCn1cc(C(=O)NCCC(=O)NCCCO)c(=O)c2cc3c(cc21)OCO3,-1.4,.,.,-7,.,
c1csc(C(c2nnnn2C2CCCC2)N2CCCC3(CCCCC3)C2)c1 (stereo not given),4.7,11,13%,-6,-20,
C=CCNC(=O)/C(C#N)=C/c1c(C)nn(-c2ccccc2)c1Cl,15,-14,7%,-1,-4,
CC(OC(=O)Cc1c[nH]c2ccccc12)C(=O)Nc1ccccc1F (stereo not given),-4.1,.,.,-6,.,
CCCNC(=O)C1CCN(c2cc(-c3ccccc3)nc3ncnn23)CC1,0.4,.,-14%,23,-4,
CC1(C)Oc2ccccc2OC1(O)c1ccc2ccccc2n1 (stereo not given),-2.7,-10,7%,5,8,
CCn1cc(/C=C/C(=O)NCc2c(C)nn(C)c2C)cn1,-4.0,-25,-2%,.,2,
O=C(NC(=S)Nc1cccc2ncccc12)c1cccs1,2.8,.,0%,-9,3,
CNC(=S)N/N=C/c1ccc(C(C)C)cc1,0.7,2,-4%,-4,.,
Cc1ccc(-n2cc(-c3ccccc3)[nH]c2=O)cc1F,-4.0,-30,1%,1,-3,
O=C(Cc1cccs1)Nc1nnc(C2CC2)s1,-2.4,.,6%,3,4,
COc1ccc(-c2cn3cccnc3n2)cc1NC(=O)c1cccs1,0.6,-31,7%,28,4,
Cc1onc(-c2ccccc2Cl)c1C(=O)N/N=C(\N)COc1ccc(Cl)cc1,-2.7,-33,.,5,-8,
CC12CN3CC(C)(CN(C1)C3c1ccccc1Cl)C2O (stereo not given),-2.5,-38,-2%,-9,-2,
Cc1ccnc(Nc2nc3ccccc3s2)n1,1.2,.,2%,5,-4,
CCc1ccc2oc(C(=O)NCc3ccncc3)c(C)c2c1,3.1,-30,0%,0,-2,

# Among those listed so far, 8 contain sulfur:
SMILES,RecA intein inh,YopH PTP inh,Mtb H37Rv,Mtb bLac sens,Arbovirus inh,others
CC(C)Cc1nnc(NC(=O)c2ccc3c(=O)n4c(nc3c2)CCC4)s1,-1.9,.,.,-23,.,
CC1CCCN(C(=O)c2ccc(NS(=O)(=O)c3ccc4[nH]c(=O)[nH]c4c3)cc2)C1 (stereo not given),-0.6,.,.,-5,.,
c1csc(C(c2nnnn2C2CCCC2)N2CCCC3(CCCCC3)C2)c1 (stereo not given),4.7,11,13%,-6,-20,
O=C(NC(=S)Nc1cccc2ncccc12)c1cccs1,2.8,.,0%,-9,3,
CNC(=S)N/N=C/c1ccc(C(C)C)cc1,0.7,2,-4%,-4,.,
O=C(Cc1cccs1)Nc1nnc(C2CC2)s1,-2.4,.,6%,3,4,
COc1ccc(-c2cn3cccnc3n2)cc1NC(=O)c1cccs1,0.6,-31,7%,28,4,
Cc1ccnc(Nc2nc3ccccc3s2)n1,1.2,.,2%,5,-4,

# Some of these compounds in order of formula weight, ascending:
SMILES,RecA intein inh,YopH PTP inh,Mtb H37Rv,Mtb bLac sens,Arbovirus inh,others
O=C(Cc1cccs1)Nc1nnc(C2CC2)s1,-2.4,.,6%,3,4,
CCc1ccc2oc(C(=O)NCc3ccncc3)c(C)c2c1,3.1,-30,0%,0,-2,
CC1(C)Oc2ccccc2OC1(O)c1ccc2ccccc2n1 (stereo not given),-2.7,-10,7%,5,8,
O=C(NC(=S)Nc1cccc2ncccc12)c1cccs1,2.8,.,0%,-9,3,
CCCNC(=O)C1CCN(c2cc(-c3ccccc3)nc3ncnn23)CC1,0.4,.,-14%,23,-4,

# (more compounds)
SMILES,RecA intein inh,YopH PTP inh,Mtb H37Rv,Mtb bLac sens,Arbovirus inh,others
NS(=O)(=O)c1ccc(NC(=O)CCCCC(=O)Nc2ccc(S(N)(=O)=O)cc2)cc1,-2.9,.,.,12,.,
CC(Nc1ccccc1)C(=O)Nc1ccc(F)cc1 (stereo not given),-5.2,12,-6%,-17,7,
CC(=O)N1CCN(c2ccccc2NC(=O)c2ccc3ccccc3c2)CC1,5.5,.,.,10,.,
C=CCn1c(SCC(=O)NC2CCCC2)nc2scc(-c3ccco3)c2c1=O,3.7,-48,-1%,-9,-1,
COc1cccc(N(CC(=O)NC2CCCC2)C(=O)CCCC(=O)Nc2ccccn2)c1,0.0,.,.,6,.,
COc1cccc(-c2nc(CS(=O)(=O)CC(=O)N3CCN(c4ccccn4)CC3)c(C)o2)c1,-0.2,-22,0%,-5,0,Arbovirus inh repeat=11
COc1ccc(Oc2nc3c(c(=O)n(C)c(=O)n3C)n2Cc2ccccc2)cc1,-0.4,1,5%,-2,-15,
Cc1noc(/C=C/N(C)C)c1S(=O)(=O)N1CCc2ccccc21,.,-19,5%,-4,1,Arbovirus inh repeat=0
COC(=O)c1ccc(CN2CCCC(C(=O)c3cc(F)ccc3OC)C2)cc1 (stereo not given),0.7,.,.,6,.,
CCN(Cc1ccccc1)C(=O)CS(=O)(=O)c1ccccc1,-2.9,.,-7%,-11,-2,
Cn1c(SCc2cccnc2)nc2c(c1=O)SCC2,2.1,.,3%,-7,1,
CCCCC1(C)Cc2ccccc2C(=S)N1 (stereo not given),0.7,-32,-10%,-4,9,
COc1ccc(C(CC(=O)N2CCCC(C)C2)c2c(OC)cc(OC)c3ccc(=O)oc23)cc1 (stereo not given),2.9,.,6%,6,.,
COC(=O)CN1C(=O)C(O)(CC(=O)c2cccc(Br)c2)c2ccccc21 (stereo not given),2.7,-11,0%,-3,-7,Arbovirus inh repeat=-6
Cc1ccc(-n2c(=O)c3sccc3n(CC(=O)NCC3CCCO3)c2=O)cc1F (stereo not given),-1.1,.,.,-3,.,
Cc1c(Br)cc(C(=O)OC2CCN(C)CC2)c(C)c1C,0.3,54*,-2%,0,-19,
CC(OC(=O)Cn1nnc2ccccc21)C(=O)NC1CCCC1 (stereo not given),-3.0,.,.,-8,.,
CN(C)Cc1nc2ccccc2c(=O)n1CC#N,-1.3,.,0%,-1,17,
O=C(COc1ccccc1)OCc1csc(Nc2ccccc2)n1,9.3,4,5%,13,-9,
COc1ccccc1NC(=O)c1ccccc1C(=O)O,-1.6,.,-4%,-4,-5,
CC(=C/C(=O)O)/C=C/c1ccco1,-0.9,-22,-9%,1,2,
O=C(O)CCC(=O)NNC(=O)CCC(=O)NCc1ccccc1,0.8,-8,-10%,-1,2,
COC(=O)c1ccccc1NC(=O)Cn1c(SC)c(F)cnc1=O,1.4,-4,-6%,-24,-2,
O=C(COc1ccc2c3c(c(=O)oc2c1)CCC3)N1C[C@H]2C[C@@H](C1)c1cccc(=O)n1C2,20,.,.,-4,.,
COc1ccc(CN(C)C(=O)c2oc3ccccc3c2CSC)cc1F,11,.,.,5,.,
CS(=O)(=O)N(CC(=O)NCCSCc1ccccc1)c1ccccc1Br,-0.9,.,.,2,.,
O=C(c1ccc(F)cc1)C1CCN(Cc2cn[nH]c2-c2ccccc2)CC1,.,.,-6%,1,.,
COC(=O)c1cc(NC(=O)c2ccc(Cn3cc(Cl)cn3)o2)cc(C(=O)OC)c1,-1.5,-30,.,17,-16,
O=C1[C@H]2CC3C=CC2(O3)[C@@H]2OCCCN12 (stereo not given in full),1.9,.,.,2,.,
COc1ccccc1N(C(=O)c1snc(C(N)=O)c1N)C(C(=O)NCCC(C)C)c1ccco1 (stereo not given),1.1,-2,-2%,-3,-11,
O=C1CNC(=S)N1Cc1ccccc1,1.6,.,-2%,-3,1,
COc1ccccc1-c1cc(C(=O)N/N=C/c2ccc(C)s2)c2ccccc2n1,2.3,0,.,-6,-11,
CCOc1ccc(S(=O)(=O)NCCC(=O)NCC(c2cccs2)N2CCOCC2)cc1 (stereo not given),1.1,.,.,-1,.,
O=C1CC(c2ccc3c(c2)OCO3)c2cc3c(cc2N1)OCO3 (stereo not given),0.9,12,-3%,5,-18,
CCCCCCCN1CCC(=O)N([C@H](CO)c2ccccc2)CC1,1.3,.,.,-11,.,
C=CCn1c(-c2cc3cccc(OC)c3o2)n[nH]c1=S,0.0,.,8%,-8,20,
Cc1ccccc1N1CCN(CCCN2C(=O)CC(=C(c3ccccc3)c3ccccc3)C2=O)CC1,3.0,-16,0%,20,-13,
CCN1CCN(Cc2cc(Br)cc(OC)c2O)CC1,0.6,-19,0%,?,4,
O=C(CCc1nnc(C2CCCCC2)o1)N1CCN(c2ccccc2F)CC1,1.0,.,3%,-5,4,
Cc1[nH]ccc(=O)c1OCc1ccc(Cl)cc1,1.9,-12,-7%,-7,-3,
CCC(=O)Nc1cc(ON=C(C)C)cc([N+](=O)[O-])c1,7.1,3,12%,-1,-4,
Cc1nnc(NC(=O)/C=C/c2ccco2)s1,3.6,-21,6%,24,1,
COc1ccc(CN2CCN(S(=O)(=O)c3ccc(NC(C)=O)cc3)CC2)c(OC)c1OC,-2.4,.,6%,-5,1,
Clc1ccc(-n2cnnn2)cc1,1.8,-40,2%,0,1,
CCOc1ccc(C(=O)NC2CCN(S(C)(=O)=O)CC2)cc1,.,-44,4%,-4,5,
COc1ccc(S(=O)(=O)N2CCCC2C(=O)Nc2ccc(O)cc2)cc1 (stereo not given),-0.7,-13,-13%,?,-9,Arbovirus inh repeat=-6
COc1ccc2oc(C(=O)OCC(=O)NCc3ccco3)c(C)c2c1,0.0,.,.,1,.,
Cc1nc(NC(=O)COC(=O)c2cc3c(s2)CCC(C)C3)c(Cl)cc1Cl (stereo not given),1.8,-22,30%,-7,-1,
CC1CCCCN1C(=O)C1COc2ccccc2O1 (stereo not given),-0.1,.,.,6,.,
O=C(CSc1nnc([C@@H]2CCCN2)o1)c1ccc(Cl)cc1,1.8,-28,-6%,0,0,
CC1CCCN(C(=O)Nc2cccc(NC(=O)N3CCCC(C)C3C)c2)C1C (stereo not given),0.6,-45,5%,-12,-5,
Cc1ccc(Cn2c(=N)n(CC(=O)c3ccccc3)c3ccccc32)cc1,8.9,.,-1%,16,-32,
Cc1ccsc1C(=O)Nc1cccc(S(=O)(=O)N(C)C)c1,1.7,-13,-3%,-10,-1,
Cc1ccccc1C(=O)N1CCC(C(=O)Nc2ccc(S(=O)(=O)N3CCCC3)cc2)CC1,-0.1,11,-13%,-3,-5,
CC(=O)Nc1ccc(NC(=O)CCC(=O)OCC(=O)c2ccc(F)cc2)cc1,-1.4,.,.,4,.,
CC(C)[C@H](NC(=O)OCc1ccccc1)C(=O)OCC(=O)NC1(C#N)CCCC1,-0.7,.,.,?,.,
Cc1cc2cc3c(cc2nc1SCC(=O)N1CCN(C(=O)c2ccco2)CC1)OCO3,.,-46,-5%,0,.,
Cc1[nH]c2ccccc2c1C(=O)C(=O)NCCCn1ccnc1,-0.9,.,-1%,-2,18,
O=C(CCS(=O)(=O)c1cccc2nsnc12)N1CCN(C(=O)c2ccco2)CC1,-4.4,-35,-3%,-3,-1,Arbovirus inh repeat=5
O=C(O)CCC(=O)Nc1ccccc1C(=O)NCc1ccco1,-3.0,-25,-1%,3,2,

# (further entries)
SMILES,RecA intein inh,YopH PTP inh,Mtb H37Rv,Mtb bLac sens,Arbovirus inh,others
CCN(CC)C(=O)CSc1n[nH]c(=S)n1N,12,.,.,-7,.,
O=C(COc1ccccc1[N+](=O)[O-])N/N=C/c1ccncc1,-5.8,.,-9%,0,2,
O=C(CCS(=O)(=O)c1ccccc1Cl)NCCC1=CCCCC1,0.8,.,.,-16,.,
Cc1ccc(S(=O)(=O)NNc2nc3ccccc3nc2C(F)(F)F)cc1,-5.3,-7,-7%,1,0,
COc1cccc(CNC(=O)CSCC(=O)Nc2cc(C)on2)c1,0.3,.,.,1,.,
CCc1nc2ccc(C(=O)NCCc3ccc(OC)c(OC)c3)cc2nc1CC,-20,.,.,-7,.,
COCC(C)n1c(C)cc(C(=O)COC(=O)c2ccc3ncsc3c2)c1C (stereo not given),.,-47,42%,88,4,
CCc1nnc(NC(=O)[C@@H](NC(=O)c2ccc(C(C)(C)C)cc2)C(C)C)s1,1.7,-26,24%,64,4,
O=C(NCc1nc2ccccc2[nH]1)C1=C[C@H](c2coc3ccccc3c2=O)C[C@H](OCCCCO)O1,-3.6,.,3%,-10,.,

# Only part of the results is shown, so the mix of outcomes need not match the whole.
